# Source: PubChem BioAssay (National Center for Advancing Translational Sciences (NCATS))
# RECQ1 helicase: RECQ1 (human) helicase inhibition. 0.54% of 240,000 active. RECQ1 DNA unwinding, red fluorescence kinetic read. Potency, µM (titrated, usually from 57.3 µM), for inactives: top-dose activity, negative = inhibition, most hits filed as inhibitors. P46063;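 note: plate controls were vehicle for no effect and no enzyme for full effect; nearly all actives have a fitted effect of over 30% in size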
# Target sequence (P46063 whole entry, looked up): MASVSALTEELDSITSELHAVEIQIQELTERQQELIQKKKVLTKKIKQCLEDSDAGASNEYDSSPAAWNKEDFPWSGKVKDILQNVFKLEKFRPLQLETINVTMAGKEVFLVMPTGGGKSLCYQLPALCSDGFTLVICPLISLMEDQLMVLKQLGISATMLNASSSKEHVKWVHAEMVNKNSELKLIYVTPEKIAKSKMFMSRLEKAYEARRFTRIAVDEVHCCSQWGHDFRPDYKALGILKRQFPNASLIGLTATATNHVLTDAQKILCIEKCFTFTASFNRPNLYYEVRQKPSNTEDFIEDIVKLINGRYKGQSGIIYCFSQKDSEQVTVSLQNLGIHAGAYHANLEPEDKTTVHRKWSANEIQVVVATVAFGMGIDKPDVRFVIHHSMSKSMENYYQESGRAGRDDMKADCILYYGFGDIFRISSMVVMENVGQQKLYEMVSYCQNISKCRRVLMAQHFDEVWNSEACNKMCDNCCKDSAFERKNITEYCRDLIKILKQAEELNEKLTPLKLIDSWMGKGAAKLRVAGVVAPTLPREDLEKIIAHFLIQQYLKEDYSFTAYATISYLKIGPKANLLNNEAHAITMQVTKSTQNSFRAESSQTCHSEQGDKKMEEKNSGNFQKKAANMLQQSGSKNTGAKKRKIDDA
#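 50 nM RECQ1T1 preincubated 15 min with compound in Tris pH 8.0 buffer with MgCl2, DTT, Tween-20 and 2.5 ug/ml poly(dI-dC); started with 200 nM TAMRA/BHQ-2 forked duplex and 2 mM ATP. Unwinding read as fluorescence (525/598 nm), two reads 2 h apart.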
# TRb SRC2 PPI: disrupts binding of human TR beta to SRC2; Potency, µM (series often up to 106 µM), for inactives: at the highest dose activity change, negative = inhibition, most hits filed as inhibitors; TRbeta-SRC2 peptide binding, fluorescence polarization; receptor liganded with 1 µM T3; 0.065% of 280,000 active; AID 1469;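 note: plate controls were bound peptide for no effect and peptide without receptor for full effect; nearly all actives have a fitted effect of over 50% in size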
#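 Human TRb LBD (0.6 uM) plus Texas Red-labeled SRC2 peptide (20 nM), 1uM T3, 5% DMSO, 5 hr at ambient temperature. Decreased polarization (555/632 nm) flags inhibition; data normalized to free and bound peptide controls.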
# Tau ThT inhib: blocks human tau fibril formation measured by thioflavin T; Potency, µM (titrated, usually from 57.4 µM), for the others: at the top dose activity, negative = inhibition, actives largely listed as inhibitors; 2.1% of 270,000 active; AID 1460; P10636; recombinant tau K18 P301L, heparin-induced fibrillization, ThT fluorescence; note: % is set by controls: 0 for no effect and ±100 for the full control effect; nearly all actives have a fitted effect of over 55% in size
#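 Heparin-induced fibrillization of the P301L-mutant K18 repeat-domain fragment of human tau was followed by ThT binding in quantitative high-throughput format.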
# TexasRed fluor: Texas Red fluorescence interference in TRb-SRC2 counter-screen | 0.29% of 280,000 active | TRb/SRC2 Texas Red total fluorescence interference | Potency, µM (titrated, usually from 106 µM), for the others: top-dose fluorescence change, negative = quenching | AID 1479; active = well fitted curve in either direction with a large enough effect; inconclusive = small, poorly fitted or top-dose-only effect; note: % is set by controls: 0 for no effect and ±100 for the full control effect
#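 Human TRβ ligand-binding domain (0.6 uM) and Texas Red SRC2 peptide (20 nM) in Tris buffer with 1 uM T3 and 5% DMSO were incubated with pinned compound for 5 hr at ambient temperature. Total fluorescence was computed as S + 2P (555/632 nm).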
# Tau FP inhib: blocks human tau fibril formation measured by polarization | K18 P301L tau heparin fibrillization, Alexa594 FP, 6 h | 0.39% of 280,000 active | P10636 | Potency, µM (top dose mostly 57.7 µM), for the others: at the top dose activity, negative = inhibition, usual class: inhibitors; note: % is set by controls: 0 for no effect and ±100 for the full control effect; nearly all actives have a fitted effect of over 55% in size
#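 Human tau K18 […] P301L fragment, 15 uM unlabeled plus 0.24 uM Alexa 594-labeled tau (final), with compound and 20 uM heparin in 100 mM sodium acetate pH 7; 6 hr at 37 C, then Alexa 594 FP read.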
# HTT ATP protect: cytoprotection in Huntington HTT-Q103 PC12 cell model; PC12 HTT-Q103 induced, cytoprotection, ATP luminescence, 40 h; Potency, µM (highest dose often 56.4 µM), for the others: cytoprotection (ATP increase), most hits filed as activators; 0.14% of 230,000 active;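 note: % of control where 0% means no effect; nearly all actives have a fitted effect of over 45% in size; toxic huntingtin expression switched on by the ecdysone agonist tebufenozide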
#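 Huntington model: PC12 line, ecdysone-inducible HTTQ103 exon1–GFP, tebufenozide 100 nM. Test articles in a dose series. Endpoint luminescence from cellular ATP.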
# Tau fluor counter: counter-screen for tau fibril formation inhibitors; tau K18 P301L Alexa594 fluorescence, heparin fibrillization; Potency, µM (top dose mostly 57.7 µM), for the others: top-dose activity change, negative = decrease; 0.93% of 280,000 active; AID 1463; note: % is set by controls: 0 for no effect and ±100 for the full control effect; nearly all actives have a fitted effect of over 55% in size
#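 Human tau K18 P301L (15 uM unlabeled, 0.24 uM Alexa 594-labeled) in 100 mM sodium acetate pH 7 with 20 uM heparin, 6 hr at 37 C. ThT 30 uM added, 1 hr ambient; Alexa 594 FP and total fluorescence read at 555/632 nm.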
# Numbers without * were called inactive; i = inactive; ? = inconclusive; / = not tested or not shown; [ ] = another dose, or the depositor's remark. Unless noted, calls come from the whole dose curve; as a rule, active = well fitted curve in the direction sought with a large enough effect; inconclusive = small, poorly fitted or top-dose-only effect, or another doubt; inactive = no such curve, though single readings can be large; an effect the other way counts as inactive or inconclusive. Potency is the fitted concentration of half-maximal effect. An excerpt (hit frequency here may not be typical).
# Under each structure – TRb SRC2 PPI	Tau ThT inhib	HTT ATP protect	TexasRed fluor	RECQ1 helicase	Tau FP inhib	Tau fluor counter
> O=C(COC(=O)C1(c2ccc(F)cc2)CCCC1)NCc1ccco1
→ -2%	-11%	-22%	-3%	?	-10%	-15%
> COC(=O)c1ccc(C)cc1
→ 8%[201 µM]	/	7%	-2%[201 µM]	19%	/	/
> Cc1nc2ccc(NC(=O)c3ccco3)cc2nc1C
→ 2%	-15%	-21%	-1%	24%	-4%	1%
> CCN(CC)C(=O)CSc1nc2cc(OC)c(OC)cc2c(=O)n1Cc1ccc(Cl)cc1
→ -2%	-15%	-6%	-2%	i	-5%	-6%
> COCCCn1c(C2CCCCC2)nc2oc3cc(OC)ccc3c(=O)c2c1=O
→ -15%	-5%	-16%[0.074 µM]	-2%	i	1%	-1%
> Cc1cc(-c2nc3ncccc3o2)ccc1N
→ 2%	8%	6%[10 µM]	-3%	7%	3%	2%
> CCCCNc1nc(-c2ccccc2)c(C(=O)OCC)cc1C#N
→ -3%	-4%	-54%[inhibitor]	-3%	-4%	9%	-6%
> C=CCn1c(CCNC(=O)c2ccccc2F)nnc1SCC(=O)Nc1ccc(OC)cc1
→ 5%	-7%	-30%	-2%	-5%	9%	-10%
> O=C(COC(=O)C1CCCCC1C(=O)N1CCc2ccccc21)NCc1ccco1 (stereo not drawn)
→ -2%	?	1%	1%	?	-2%	-13%
> CN(CC(=O)Nc1sccc1C#N)C1CCCCC1
→ -21%	3%	4%[1.9 µM]	-2%	-1%	1%	2%
> CCOC(=O)CCC(=O)O[C@H]1C(O[C@@H]2C(C)[C@H](O[C@H]3C[C@@](C)(OC)C(O)C(C)O3)C(C)C(=O)OC(CC)[C@@](C)(O)C(O)[C@H](C)C(=O)C(C)C[C@]2(C)O)OC(C)CC1N(C)C (stereo partly drawn)
→ 3%	-10%	19%	-1%	17%	-2%	-13%
> CCOC(=O)c1cc(C#N)c(Oc2cccc(C(F)(F)F)c2)nc1-c1ccccc1
→ 7%	-18%	5%[10 µM]	3%	-3%	-12%	-30%
> COCCn1c(C(C)C)nc2oc3ccccc3c(=O)c2c1=O
→ -9%	-8%	0%	-1%	i	7%	4%

# Entries shown so far that have nitrogen in an aromatic ring:
# Under each structure – TRb SRC2 PPI	Tau ThT inhib	HTT ATP protect	TexasRed fluor	RECQ1 helicase	Tau FP inhib	Tau fluor counter
> Cc1nc2ccc(NC(=O)c3ccco3)cc2nc1C
→ 2%	-15%	-21%	-1%	24%	-4%	1%
> CCN(CC)C(=O)CSc1nc2cc(OC)c(OC)cc2c(=O)n1Cc1ccc(Cl)cc1
→ -2%	-15%	-6%	-2%	i	-5%	-6%
> COCCCn1c(C2CCCCC2)nc2oc3cc(OC)ccc3c(=O)c2c1=O
→ -15%	-5%	-16%[0.074 µM]	-2%	i	1%	-1%
> Cc1cc(-c2nc3ncccc3o2)ccc1N
→ 2%	8%	6%[10 µM]	-3%	7%	3%	2%
> CCCCNc1nc(-c2ccccc2)c(C(=O)OCC)cc1C#N
→ -3%	-4%	-54%[inhibitor]	-3%	-4%	9%	-6%
> C=CCn1c(CCNC(=O)c2ccccc2F)nnc1SCC(=O)Nc1ccc(OC)cc1
→ 5%	-7%	-30%	-2%	-5%	9%	-10%
> CCOC(=O)c1cc(C#N)c(Oc2cccc(C(F)(F)F)c2)nc1-c1ccccc1
→ 7%	-18%	5%[10 µM]	3%	-3%	-12%	-30%
> COCCn1c(C(C)C)nc2oc3ccccc3c(=O)c2c1=O
→ -9%	-8%	0%	-1%	i	7%	4%

# Compounds from the list above with an aryl thioether with sulfur outside any ring, in the order listed:
# Under each structure – TRb SRC2 PPI	Tau ThT inhib	HTT ATP protect	TexasRed fluor	RECQ1 helicase	Tau FP inhib	Tau fluor counter
> CCN(CC)C(=O)CSc1nc2cc(OC)c(OC)cc2c(=O)n1Cc1ccc(Cl)cc1
→ -2%	-15%	-6%	-2%	i	-5%	-6%
> C=CCn1c(CCNC(=O)c2ccccc2F)nnc1SCC(=O)Nc1ccc(OC)cc1
→ 5%	-7%	-30%	-2%	-5%	9%	-10%
